Rce1 inh: blocks yeast Ras-converting enzyme; calls only; yeast membranes, quenched prenylated peptide cleavage fluorescence; 290,000 tested, 0.27% active;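 active = fall in fluorescence gain of 50% or more versus controls, with final raw signal at or below 3038400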;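 also: plate controls were neutral control wells for no effect and wells lacking membranes for full effect; tested at 10 µM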
MT1-MMP act inh: MT1-MMP (human) activation inhibition | 360,000 tested, 0.061% active | GFP/RFP ratio change, % at 20 µM | HT1080 RFP-PRO-GFP cells, GFP/RFP ratio fluorescence, overnight; percent of plate control window, DMSO zero;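 active = GFP/RFP ratio change of at least 30% with cell ATP level not reduced by more than half and red fluorescence within 50% of control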; also: strong numbers were not always called active
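Material – HT1080 RFP-PRO-GFP cells · Control set – DMSO wells and RFP-L50D-GFP cells · Incubation – overnight cell settling, then overnight compound exposure, 37 °C, 5% CO2 · Compound dosing – single-point 20 µM compound, 1% DMSO · Read-out – GFP/RFP fluorescence ratio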
UUG fidelity: yeast start codon fidelity modulation. activity score, % at 18.7 µM. S. cerevisiae UUG-firefly luciferase reporter, luminescence/redox ratio. 350,000 tested, 0.13% active;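 active = replicate mean at a twofold rise or more, about +100% in these data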;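 also: firefly luciferase made from a UUG start codon reports start codon fidelity; reporter light over untreated wells divided by growth signal over untreated wells; some hits fall short of that in this replicate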
eIF4H FP inh: inhibitors of RNA binding by human eIF4H; eIF4H fluorescence polarization binding assay; 290,000 tested, 0.94% active; AID 2012; inhibition, % at 35 µM; Q15056;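 active = 50% or more with normal probe brightness, or confirmed in later tests; about a fifth of its hits are not listed in these tables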;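 also: calls also rest on retests at 20 µM and on dose response follow-up; 0% = protein and probe with vehicle and 100% = probe without protein; strong numbers were not always called active; many hits fall short of the cut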
CSC inhib: blocks cancer stem cells | 300,000 tested, 1.1% active | AID 2717 | inhibition, % at 7.5 µM | cancer stem cell-like cells viability, luminescence;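 active = mean at 75% or more and at least half the replicates too; tested in HMLE shEcad cells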;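 also: 0% = median of negative and 100% = median of positive control wells; the first replicate is given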
PABP polyA inh: blocks human PABP binding to poly(A) RNA; P11940; fluorescence polarization; inhibition, % at 35 µM; 290,000 tested, 1% active;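 active = 50% or more with normal probe brightness, or confirmed in later tests; about a fifth of its hits are not listed in these tables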;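 also: calls also rest on retests at 20 µM and on dose response follow-up; controls were probe without protein and protein plus probe with vehicle; some compounds called inactive have numbers as strong as hits; many hits fall short of the cut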
Target sequence (P11940 whole entry, looked up): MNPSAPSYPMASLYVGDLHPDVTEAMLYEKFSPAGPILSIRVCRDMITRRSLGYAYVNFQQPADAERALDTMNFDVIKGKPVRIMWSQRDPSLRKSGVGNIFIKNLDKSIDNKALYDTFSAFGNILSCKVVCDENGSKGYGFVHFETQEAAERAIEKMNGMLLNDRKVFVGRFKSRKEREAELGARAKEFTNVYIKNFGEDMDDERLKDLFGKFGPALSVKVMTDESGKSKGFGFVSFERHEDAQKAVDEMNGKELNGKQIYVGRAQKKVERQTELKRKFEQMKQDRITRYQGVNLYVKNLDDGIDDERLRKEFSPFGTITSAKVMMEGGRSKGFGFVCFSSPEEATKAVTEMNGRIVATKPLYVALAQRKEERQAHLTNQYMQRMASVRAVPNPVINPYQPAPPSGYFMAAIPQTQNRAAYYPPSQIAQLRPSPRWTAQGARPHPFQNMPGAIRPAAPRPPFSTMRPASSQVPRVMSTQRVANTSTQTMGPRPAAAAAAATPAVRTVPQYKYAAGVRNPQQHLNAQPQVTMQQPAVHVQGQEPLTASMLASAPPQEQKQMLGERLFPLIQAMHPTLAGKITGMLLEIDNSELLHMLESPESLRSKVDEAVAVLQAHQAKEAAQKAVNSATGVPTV
HIV Env fusion: HIV envelope-mediated fusion inhibition; HeLa-JRFL Env/CEM21 cell fusion, luciferase; inhibition, % at 12.3 µM; 360,000 tested, 1.1% active;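 active = mean replicate inhibition score of at least 50 and every replicate individually at or above 50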;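 also: 0% = plate neutral controls and 100% = maraviroc near 300 nM; one replicate is shown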
eIF4H FP inh retest: further read-out of eIF4H FP inh, marked with its call; inhibition, %; compound at 20 µM; confirmation average;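 mean of two retest wells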
PABP polyA inh retest: further read-out of PABP polyA inh, marked with its call; inhibition, %; compound at 20 µM; confirmation repeats;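 mean of two retest wells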
MT1-MMP act inh RFP: also measured in MT1-MMP act inh; calls as there; RFP signal change, %; measured here: RFP expression control read;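 0 = vehicle wells; hits needed this value within 50% of zero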
* = called active by the depositor; i = inactive; nt = no result given; + = active, no number; & = joins results of further samples; [ ] = another dose, or the depositor's remark.

SMILES	Rce1 inh	MT1-MMP act inh	MT1-MMP act inh RFP	UUG fidelity	eIF4H FP inh	CSC inhib	PABP polyA inh	HIV Env fusion	others
Cc1ccc(C2CC(=O)NC(SCc3ccccc3)=C2C#N)cc1 (configuration not stated)	nt	1.0	-2.8	6.4	-9.5	nt	-3.3	-117.7
O=C(Cn1nc(-c2ccccc2)ccc1=O)NCCN1CCN(Cc2ccccc2)CC1	i	3.8	-2.2	6.3	4.2	-8.1	-13.7	nt
O=C(Nc1ccc(OC(F)(F)F)cc1)c1ccc2ccccc2n1	i	-0.8	-12.4	nt	-0.7	-13.4	-5.5	-4.1
COc1ccc2oc(=O)c(C(=O)O)cc2c1	i	10.8	2.1	nt	-1.2	-6.2	2.0	nt
CC(CS(=O)(=O)c1ccc2c(c1)NC(=O)CS2)C(=O)NCc1ccccc1Cl (configuration not stated)	i	-7.4	2.3	-18.5	66.6	-7.2	25.2*	4.8	eIF4H FP inh retest=44.0;PABP polyA inh retest=64.4*
Cc1n[nH]c(=O)nc1NCc1ccc(Cl)cc1	i	0.6	1.9	-17.7	-1.8	-1.0	4.7	nt
CCN1CCc2c(OCC(=O)Nc3ccc(C)cc3)cccc2C1=O	i	2.0	4.5	-1.4	-9.9	-9.0	-9.1	5.0
Cc1cc(NC(=O)COC(=O)[C@@H](NS(=O)(=O)c2ccc(Br)cc2)C(C)C)no1	i	1.1	1.8	nt	-3.6	-7.2	1.5	4.8
CS(=O)(=O)N1CCN(c2ccccc2NC(=O)c2cccnc2)CC1	i	7.0	4.7	nt	-4.5	-1.8	-9.0	nt
COc1cc(C)c(Cl)cc1S(=O)(=O)N1CCCC1	i	0.5	-2.1	nt	-2.0	-7.4	-0.7	0.1
CC(C)(C)n1cn[nH]c1=S	i	7.2	-0.3	-8.8	-8.9	-12.1	2.7	16.9
O=C(O)c1ccc2c(c1)S(=O)(=O)N=C1CCCCCN12	i	-4.3	1.2	-10.3	99.2	-6.4	-7.7	-10.1	eIF4H FP inh retest=14.4;PABP polyA inh retest=9.7
CCCOc1nnnn1-c1ccccc1	i	0.5	-1.5	-13.1	-1.0	9.9	-5.0	-45.4
Cn1c(-c2ccc(CN3CCCCC3)o2)nc2ccccc21	i	-1.2	2.4	-15.6	-12.7	-13.3	-27.0	nt
OCCNCC(O)CN1c2ccccc2Sc2ccccc21 (configuration not stated)	i	-3.9	-1.7	-7.7	-5.0	-14.0	-7.0	-2.3
COc1ccc2nc(N3C(=O)CC(C(C)c4ccccc4)C3=O)sc2c1 (configuration not stated)	i	-1.2	-1.8	nt	-9.1	-0.5	17.7	nt
COc1ccc(-c2csc(NC(=S)NC(=O)c3ccccc3)n2)cc1Br	i	6.0	3.4	-0.6	-6.1	nt	14.2	8.4
COCc1nnc(NC(=O)CC(c2ccccc2)c2ccccc2)s1	i	0.7	3.5	nt	-3.5	nt	-5.2	nt
CC(C)Cc1nnc(NC(=O)Cc2ccc([N+](=O)[O-])cc2)s1	i	1.8	3.9	-14.8	-10.3	nt	-36.3	nt
COc1ccccc1C(=O)NNC(=O)c1ccc(NC(=O)c2ccccc2)cc1	+	2.8	7.8	-10.9	-9.5	5.9	8.4	15.7

Nothing new here: an excerpt of the list.
SMILES	Rce1 inh	MT1-MMP act inh	MT1-MMP act inh RFP	UUG fidelity	eIF4H FP inh	CSC inhib	PABP polyA inh	HIV Env fusion	others
Cc1ccc(C2CC(=O)NC(SCc3ccccc3)=C2C#N)cc1 (configuration not stated)	nt	1.0	-2.8	6.4	-9.5	nt	-3.3	-117.7
O=C(Cn1nc(-c2ccccc2)ccc1=O)NCCN1CCN(Cc2ccccc2)CC1	i	3.8	-2.2	6.3	4.2	-8.1	-13.7	nt
O=C(Nc1ccc(OC(F)(F)F)cc1)c1ccc2ccccc2n1	i	-0.8	-12.4	nt	-0.7	-13.4	-5.5	-4.1
COc1ccc2oc(=O)c(C(=O)O)cc2c1	i	10.8	2.1	nt	-1.2	-6.2	2.0	nt
CC(CS(=O)(=O)c1ccc2c(c1)NC(=O)CS2)C(=O)NCc1ccccc1Cl (configuration not stated)	i	-7.4	2.3	-18.5	66.6	-7.2	25.2*	4.8	eIF4H FP inh retest=44.0;PABP polyA inh retest=64.4*
Cc1n[nH]c(=O)nc1NCc1ccc(Cl)cc1	i	0.6	1.9	-17.7	-1.8	-1.0	4.7	nt
CCN1CCc2c(OCC(=O)Nc3ccc(C)cc3)cccc2C1=O	i	2.0	4.5	-1.4	-9.9	-9.0	-9.1	5.0
Cc1cc(NC(=O)COC(=O)[C@@H](NS(=O)(=O)c2ccc(Br)cc2)C(C)C)no1	i	1.1	1.8	nt	-3.6	-7.2	1.5	4.8
CS(=O)(=O)N1CCN(c2ccccc2NC(=O)c2cccnc2)CC1	i	7.0	4.7	nt	-4.5	-1.8	-9.0	nt
COc1cc(C)c(Cl)cc1S(=O)(=O)N1CCCC1	i	0.5	-2.1	nt	-2.0	-7.4	-0.7	0.1

More compounds follow.
SMILES	Rce1 inh	MT1-MMP act inh	MT1-MMP act inh RFP	UUG fidelity	eIF4H FP inh	CSC inhib	PABP polyA inh	HIV Env fusion	others
COC(=O)c1c(NC(=O)c2ccccc2[N+](=O)[O-])sc2c1CC(C)(C)NC2(C)C	i	-4.5	-6.7	nt	2.1	-9.0	6.9	14.3
NC(CSC(c1ccccc1)(c1ccccc1)c1ccc(-c2ccccc2)cc1)C(=O)O (configuration not stated)	nt	-0.2	1.7	-11.9	nt	nt	nt	2.5
NC(=O)c1cc(C(=O)c2ccc(Cl)cc2Cl)c[nH]1	i	-7.4	-4.2	nt	-10.2	3.2	-5.2	26.0
CCn1c(=O)c(C(=O)NNC(=O)c2ccccc2Cl)c(O)c2ccccc21	i	3.8	3.0	-16.3	6.3	nt	9.2	8.7
COC(=O)c1cc(=O)n(-c2ccc(F)cc2)c(=Nc2ccc(F)cc2)s1	i	-4.2	-11.1	-10.4	1.4	15.9	11.8	-31.3
CS(=O)(=O)c1ccc(Cl)c(NC(=O)CSc2nnc3n2CCCCC3)c1	nt	0.1	0.7	-10.5	nt	nt	nt	-74.3
CCOC(=O)C1=C(c2ccccc2)Nc2ncnn2C1c1ccc(OC)c(OC)c1OC (configuration not stated)	i	-2.1	2.1	-11.1	-7.7	-1.3	-7.4	-10.2
CCn1c2ccccc2c2nnc(SCC(=O)N(C)C3CCS(=O)(=O)C3)nc21 (configuration not stated)	i	1.9	4.2	nt	-4.0	-6.0	10.4	0.1
CCC(=O)c1ccc(OCC(=O)OCC(=O)Nc2sccc2C(N)=O)cc1	i	3.3	5.4	nt	-0.7	-9.6	-11.6	-14.0
Cn1c(=NC(=O)CSCC(=O)N2CCCCC2)sc2ccccc21	i	-1.0	-0.7	-23.9	-3.3	-6.7	-0.3	nt
COc1cc(/C=N/NC(N)=O)ccc1OC(=O)c1ccco1	i	2.3	4.9	nt	2.0	3.0	-9.5	-26.9
COc1ccc(C(=O)Nc2nc(N3C(=O)c4ccccc4C3=O)n(-c3ccccc3)n2)cc1	i	0.6	3.2	-37.5	99.9	12.5	98.5	-17.9	eIF4H FP inh retest=0.0;PABP polyA inh retest=1.3
Cc1noc(C)c1S(=O)(=O)Nc1ccc2c(c1)C(=O)N([C@H](C)CO)C[C@H](C)[C@@H](CN(C)C(=O)Nc1ccc(C(F)(F)F)cc1)O2	nt	2.8	6.2	-13.0&8.0	nt	nt	nt	-4.6[16.7 µM]
COc1ccc(OCC(=O)N2CCc3ccccc32)c([N+](=O)[O-])c1	nt	4.2	5.2	-5.0	nt	nt	nt	-20.6
OCCCCCN=c1cc(-c2ccccc2)oc2ccc(Cl)cc12	i	-0.8	1.6	nt	-2.1	-10.4	-4.3	nt
O=C(OCC(=O)N1CCc2ccccc21)[C@@H]1CCCN1S(=O)(=O)c1ccccc1F	nt	1.1	4.6	-2.3	nt	-16.2	nt	-9.6
COc1cc(/C=N/n2cnnc2)ccc1OCCOc1ccccc1	i	3.5	6.0	-23.7	-18.2	-9.2	9.4	nt
COc1cc(O)c(C(CCN2CCOCC2)c2ccc(N(C)C)cc2)c(OC)c1 (configuration not stated)	i	4.0	-1.6	7.7	5.3	4.8	2.5	9.4
O=C(CSc1nc(C(F)(F)F)cc(=O)[nH]1)Nc1cccc2ccccc12	i	4.9	-3.7	nt	nt	-5.8	nt	4.8
COc1ccc(/C=C/C(=O)OCC(=O)NCCNC(=O)COC(=O)/C=C/c2ccc(OC)cc2)cc1	i	-1.8	-1.9	-12.4	-17.7	-7.3	-9.2	2.6
Cc1ccc(S(=O)(=O)N2CCCOC2CNC(=O)C(=O)NC2CCCCC2)cc1 (configuration not stated)	nt	0.5	-3.7	nt	-10.9	-6.6	12.2	-4.0
COc1cc(N)c(Cl)cc1C(=O)OCC(=O)Nc1ccc(N2CCOCC2)cc1	nt	4.0	-0.5	-30.6	nt	-11.8	nt	nt
CCC(C)[C@H](NC(=O)NC(C)C)C(=O)O (some centres not stated)	i	3.3	6.0	-17.9	0.2	-5.1	0.4	12.6
CCCC(CCC)c1nc2ccncc2[nH]1	i	4.9	7.5	nt	1.6	5.3	-11.4	6.6
CCOC(=O)N1CCc2c(sc(NC(=O)CN(CC)CC)c2C#N)C1	i	-2.0	1.4	-10.6	-0.3	-8.0	-6.0	-1.3
COc1ccccc1C(=O)Nc1c(-c2ccccc2)nc2ccccn12	i	-3.9	-2.0	nt	1.4	-7.6	6.7	11.4
COc1ccc(C(=O)N2CCN(C3CCCCC3)CC2)c(OC)c1	i	4.5	5.4	-4.1	-4.8	11.2	3.5	nt
Cc1nc2c(sc3nc4c(cc32)COC(C)(C)C4)c(=O)n1CC(=O)NCc1ccco1	i	9.2	-7.7	-7.8	nt	51.4	nt	nt
COc1ccc(C(c2nnnn2C(C)(C)C)N2CCN(C/C=C/c3ccccc3)CC2)cc1 (configuration not stated)	nt	2.2	2.0	7.3	nt	nt	nt	-23.9
Fc1cccc(COc2ccccc2CNc2ccccc2)c1	i	-2.1	-5.1	nt	-2.9	22.0	16.1	0.4
CCCc1cc(=O)[nH]c(SCC(=O)Nc2c(C)n(C)n(-c3ccccc3)c2=O)n1	nt	-2.1	-1.9	-7.8	nt	-10.0	nt	12.5
Cc1ccc(-n2nc(C)c3c(C)c(CCC(=O)O)c(C)nc32)cc1C	i	-3.5	-2.1	2.8	-11.6	-2.7	-3.1	5.5
Cc1ccc2nc(NC(=O)C3CCN(S(=O)(=O)c4cccs4)CC3)sc2c1	i	-0.4	-24.6	7.3	11.1	27.8	-6.0	79.8*
CCC(CC)c1nc(C(N)=O)c2[nH]c(=O)n(-c3ccc(OC)c(OC)c3)c2n1	i	-3.1	-0.4	-6.7	-3.0	1.7	3.4	0.6
Cc1ccc(S(=O)(=O)C2CS(=O)(=O)CC2O)cc1 (configuration not stated)	i	1.7	-0.2	-17.1	2.9	-10.5	9.7	nt
Cn1nnnc1NCc1cccc(Cl)c1	i	4.8	1.9	1.1	-1.5	-7.2	9.2	3.0
CC(=O)c1cc(C#N)c(SCc2ccccc2C#N)nc1C	i	-1.1	-6.4	-23.5	1.9	34.0	-6.9	nt

Sorted by formula weight (falling): 3 of the compounds above
SMILES	Rce1 inh	MT1-MMP act inh	MT1-MMP act inh RFP	UUG fidelity	eIF4H FP inh	CSC inhib	PABP polyA inh	HIV Env fusion	others
CCCc1cc(=O)[nH]c(SCC(=O)Nc2c(C)n(C)n(-c3ccccc3)c2=O)n1	nt	-2.1	-1.9	-7.8	nt	-10.0	nt	12.5
CCC(CC)c1nc(C(N)=O)c2[nH]c(=O)n(-c3ccc(OC)c(OC)c3)c2n1	i	-3.1	-0.4	-6.7	-3.0	1.7	3.4	0.6
CC(=O)c1cc(C#N)c(SCc2ccccc2C#N)nc1C	i	-1.1	-6.4	-23.5	1.9	34.0	-6.9	nt

Bioassay records from PubChem BioAssay.

Some of the compounds tested; rates above refer to the full screens.
